N370S GC mod – inhibits or activates N370S mutant glucocerebrosidase | N370S GC spleen homogenate, 4MU-glucoside fluorescence | Potency, µM (doses to about 59.4 µM), for the others: top-dose activity change, negative = inhibition, actives largely listed as inhibitors | 330,000 compounds, 0.092% hits | AID 2101;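 further: 0% = full enzyme activity and -100% = no enzyme basal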
KAT2A inh – inhibitors of human GCN5L2 histone acetyltransferase; Potency, µM (series often up to 58.9 µM), for the others: at the top dose activity change, negative = inhibition, hits mostly inhibitors; Q92830; GCN5L2 HAT assay, ThioGlo1 CoA-SH fluorescence; 390,000 compounds, 0.21% hits
Target sequence (Q92830 whole entry, looked up): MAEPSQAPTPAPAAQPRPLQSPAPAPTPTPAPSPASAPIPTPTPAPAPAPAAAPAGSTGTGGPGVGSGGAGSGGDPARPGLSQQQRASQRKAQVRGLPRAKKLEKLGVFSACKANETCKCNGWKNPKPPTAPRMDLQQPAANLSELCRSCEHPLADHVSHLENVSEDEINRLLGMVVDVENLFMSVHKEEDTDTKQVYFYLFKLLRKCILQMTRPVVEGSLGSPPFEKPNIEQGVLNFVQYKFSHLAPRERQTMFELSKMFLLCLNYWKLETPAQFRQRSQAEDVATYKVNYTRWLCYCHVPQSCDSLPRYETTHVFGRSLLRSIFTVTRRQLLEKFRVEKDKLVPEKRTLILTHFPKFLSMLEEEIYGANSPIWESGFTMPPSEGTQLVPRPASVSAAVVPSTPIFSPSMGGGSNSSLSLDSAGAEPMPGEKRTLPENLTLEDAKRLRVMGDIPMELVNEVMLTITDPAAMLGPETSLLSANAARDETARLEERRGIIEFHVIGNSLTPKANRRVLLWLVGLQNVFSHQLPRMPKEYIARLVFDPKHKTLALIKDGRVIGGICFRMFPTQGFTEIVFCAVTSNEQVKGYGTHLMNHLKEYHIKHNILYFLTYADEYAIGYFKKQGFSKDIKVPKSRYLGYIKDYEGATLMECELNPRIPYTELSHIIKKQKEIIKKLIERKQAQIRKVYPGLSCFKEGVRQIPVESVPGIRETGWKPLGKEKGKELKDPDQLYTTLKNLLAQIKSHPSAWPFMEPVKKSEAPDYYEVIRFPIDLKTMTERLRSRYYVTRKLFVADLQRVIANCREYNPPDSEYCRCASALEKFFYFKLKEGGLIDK
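GCN5L2 (20nM final) in 50mM HEPES, 0.1mM EDTA pH 7.5, 0.01% Tween-20 was preincubated 15 min at room temperature with compound, then given ThioGlo1 (50uM), H3(1-25) peptide (75uM) and acetyl-CoA (70uM); CoA-thiol fluorescence (Ex340/Em540) was read at 0 and 20 min.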
Starred values were filed as active, the others as inactive; & = joins results of further samples. The call rests on the fitted dose curve; in most records, active means well fitted curve in the direction sought with a large enough effect; inconclusive means small, poorly fitted or top-dose-only effect, or another doubt; inactive means no such curve, though single readings can be large; an effect the other way counts as inactive or inconclusive. Unless noted, on the % scale 0 is the no-effect control and ±100 the full control effect; potency means the concentration at half of the fitted maximal effect.

COc1ccc(C2C(C#N)=C(N)N(N(C)C)C3=C2C(=O)CC(C)(C)C3)cc1 (stereo not drawn) was read as N370S GC mod -9.3% and KAT2A inh 1.4%.
For Cc1ccc(-n2c(=O)cc(N3CC(C)CC(C)C3)[nH]c2=O)cc1 (stereo not drawn) the results were N370S GC mod 4.7% and KAT2A inh 12.9%.
For CC(C)(C)CC(=O)Nc1nnc(SCC(=O)N2CCCCC2)s1 the results were N370S GC mod -6.5% and KAT2A inh 3.4%.
Cc1cc(NC(=O)CSc2nc(C(C)(C)C)nc3ccccc23)no1 was read as N370S GC mod 4.0% and KAT2A inh 3.0%.
Screening Cc1ccc(NC(=O)COC(=O)[C@H](C)N2C(=O)C3CC=CCC3C2=O)cc1S(=O)(=O)N(C)C (stereo partly drawn) returned N370S GC mod 2.4% and KAT2A inh -3.0%.
Screening Clc1ccc(CSc2nccn2Cc2ccccc2)cc1 returned N370S GC mod -1.3% and KAT2A inh -11.6%.
Screening Cc1cc(-c2ccccc2)c2c3c(cn2n1)c(=O)n(C)c(=O)n3C returned N370S GC mod 2.6% and KAT2A inh 1.1%.
COCCCNC(=O)CCn1c(=O)c2ccccc2n(CC(=O)Nc2cc(Cl)ccc2OC)c1=O was read as KAT2A inh -6.2%.
Screening Cc1csc(CN(C)C(=O)CC2C(=O)NCCN2Cc2ccc(F)cc2Cl)n1 (stereo not drawn) returned N370S GC mod 0.1% and KAT2A inh -15.6%.
Cc1cccc(C(=O)NCC(=O)OCC(=O)NCCNC(=O)COC(=O)CNC(=O)c2cccc(C)c2)c1 was read as N370S GC mod -4.5% and KAT2A inh 1.3%.
For S=C(NC1CC1)NC1CCCc2ccccc21 (stereo not drawn) the results were N370S GC mod -2.6% and KAT2A inh 0.8%.
Screening O=C(Nc1cccc(S(=O)(=O)N2CCCC2)c1)C1CCCN1C(=O)c1cccs1 (stereo not drawn) returned N370S GC mod -10.6% and KAT2A inh -16.4%.
`Cc1ccc(-n2c(SCC(=O)NCc3ccc4c(c3)OCO4)nnc2-c2cccnc2)c(C)c1` gave N370S GC mod 2.0% and KAT2A inh -1.0%.
Screening COc1cccc(CNCc2ccc(OC)c3ccccc23)c1OC returned N370S GC mod -20.8% and KAT2A inh -2.2%.
Screening Cc1ccccc1NC(=S)Nc1ccc2cn[nH]c2c1 returned N370S GC mod -1.3% and KAT2A inh -7.6%.
For CCOC(=O)c1c(S(=O)(=O)NC2CCN(C(=O)OCC)CC2)c(C)n(C)c1C the results were N370S GC mod 0.7% and KAT2A inh -4.3%.
Screening Cc1cc(NC(=O)CSc2nnc(Cc3cccn3C)n2CCc2ccccc2)no1 returned N370S GC mod 1.6% and KAT2A inh -8.4%.
`CS(=O)(=O)c1ccc([C@@H](O)[C@@H](CF)NC(=O)C(Cl)Cl)cc1` gave N370S GC mod -0.1% and KAT2A inh -2.0%.
CN(Cc1ccccc1)C(=O)CNC(=O)C12CC3CC(CC(C3)C1)C2 was read as KAT2A inh -4.0%.
CC1CCCN(CCCNS(=O)(=O)c2ccc3c(c2)CCN3C(=O)C2CC2)C1 (stereo not drawn) was read as N370S GC mod -2.2% and KAT2A inh -3.7%.
For O=C(Nc1cccc(-c2cccc(Cl)c2)c1)C1CCN(Cc2ccc(CO)o2)CC1 the results were N370S GC mod -25.6% and KAT2A inh -1.1%.
O=C(CN1C(=O)CCS(=O)(=O)c2ccccc21)Nc1ccc2c(c1)OCCO2 was read as N370S GC mod 18.4% and KAT2A inh -0.6%.
For CC(=O)c1c(C)oc2ccc(N(C(=O)c3ccncc3)S(=O)(=O)c3ccc(F)cc3C)cc12 the results were KAT2A inh -15.8%.
`CCCC(c1nnnn1CCOC)N1CCN(C(=O)c2ccco2)CC1` (stereo not drawn) gave N370S GC mod -11.0% and KAT2A inh 0.1%.
`Cc1oc2ncnc(N3CCCCC3)c2c1C(=O)N1CCN(c2cccc(C(F)(F)F)c2)CC1` gave KAT2A inh 4.6%.
For CCc1ccc(NC(=O)CC2C(=O)N(c3ccc(C)cc3)C(=O)N2C2CC2)cc1 (stereo not drawn) the results were N370S GC mod 4.4% and KAT2A inh -10.3%.
`O=C(COc1ccccc1)NCc1nnc(SCC(=O)Nc2nccs2)n1-c1ccccc1` gave N370S GC mod 6.0% and KAT2A inh -7.3%.
`COc1cc(C(=O)OCC(=O)c2ccc(S(=O)(=O)N3CCCCC3)cc2)cc(OC)c1OC` gave KAT2A inh -3.6%.
Screening Cc1cccc(N2C(=O)/C(=C/c3cccnc3)SC2=S)c1 returned N370S GC mod -3.7% and KAT2A inh -2.1%.
CC(C)Cc1ccc(CN2CCCC(NC(=O)CCN3CCOCC3)C2)cc1 (stereo not drawn) was read as N370S GC mod -14.7% and KAT2A inh 0.1%.
c1ccc2[nH]c(CN3CCCCCC3)nc2c1 was read as N370S GC mod -1.1% and KAT2A inh 0.7%.
COc1ccc(S(=O)(=O)CCC(=O)NC2CCCCC2)cc1 was read as N370S GC mod -0.3% and KAT2A inh 0.7%.
Cc1onc(-c2ccccc2)c1C(=O)OCC(=O)Nc1ccc(OC(F)(F)F)cc1 was read as KAT2A inh -11.6%.
`Cc1cc(=O)oc2cc(OC(C(=O)O)c3ccccc3)ccc12` (stereo not drawn) gave N370S GC mod -7.9% and KAT2A inh -2.5%.
For O=C(COc1ccc2ccccc2c1)NCCc1ccc2c(c1)OCCO2 the results were N370S GC mod 15.0% and KAT2A inh -6.4%.
For CCOc1ncccc1C(=O)OCC(=O)NCc1ccccc1 the results were KAT2A inh 0.0%.
Cc1sc2nc(C3CC3)nc(SCC(=O)N3c4ccccc4CC3C)c2c1C (stereo not drawn) was read as N370S GC mod 2.3% and KAT2A inh -3.6%.
Screening O=C(O)CC(C(=O)Nc1ccc(Cl)cc1Cl)C1CCCO1 (stereo not drawn) returned N370S GC mod 2.0% and KAT2A inh 2.1%.
CCOC(=O)c1[nH]c(COC(=O)C2CC(=O)N(Cc3ccccc3)C2)c(C(=O)OCC)c1C (stereo not drawn) was read as N370S GC mod -0.6% and KAT2A inh 1.4%.
`Cc1ccc(C)c(-c2csc(NC(=O)c3c(C)noc3C)n2)c1` gave KAT2A inh -1.6%.
Screening CC(C)(C)OC(=O)C(C)(C)O/N=C(\C(=O)O)c1csc(N)n1 returned N370S GC mod 4.3% and KAT2A inh 0.0%.
For O=C(C[n+]1ccc(C(=O)c2ccccc2)cc1)Nc1ccc(C(F)(F)F)cc1 the results were N370S GC mod -10.6% and KAT2A inh -6.3%.
For O=c1c2ccccc2nc(COc2ccccc2)n1/N=C/c1cn[nH]c1-c1ccccc1 the results were N370S GC mod -8.7% and KAT2A inh 0.4%.
`Cc1ccccc1C(NC(N)=O)c1ccccc1` (stereo not drawn) gave N370S GC mod 1.9% and KAT2A inh -17.6%.
Screening CCCC1NC(=S)N(C2CCCCC2)C1=O (stereo not drawn) returned N370S GC mod 7.3% and KAT2A inh -4.6%.
`CC(=O)N1CCN(Cc2nc3cc(NC(=O)c4ccccc4)ccc3n2C)CC1` gave N370S GC mod -15.0% and KAT2A inh -25.4%.
For CCOCC(=O)Nc1cc(Cl)ccc1C the results were N370S GC mod 0.1% and KAT2A inh -5.5%.
Screening C#CCn1cc(Cl)cc(C(=O)Nc2ccccc2)c1=O returned N370S GC mod -1.0% and KAT2A inh inconclusive.
Screening Cc1cc(C)c2nc(SCC(=O)NC(=O)c3cccn3C)cc(C)c2c1 returned N370S GC mod 7.6% and KAT2A inh -2.4%.
CCOc1ccc(S(=O)(=O)NCc2cccs2)cc1C(C)C was read as N370S GC mod 0.5% and KAT2A inh -1.5%.
For O=C(Nc1cc(Cl)ccc1Cl)C1CC(=O)N(c2ccc(Br)cc2)C1 (stereo not drawn) the results were N370S GC mod inconclusive and KAT2A inh -8.9%.
`Cc1c(C(=O)N(C)C)sc(NC(=O)c2cc([N+](=O)[O-])cc([N+](=O)[O-])c2)c1C#N` gave N370S GC mod -22.9% and KAT2A inh 2.3%.
Cn1nnnc1SCC(=O)N1CCN(C(c2ccccc2)c2ccccc2)CC1 was read as N370S GC mod 1.3% and KAT2A inh -7.3%.
CC(=O)OCCCCCCCCCCC[N+]1(C)CCCCC1 was read as N370S GC mod -2.0% and KAT2A inh -10.4%.
Screening COc1ccc(C(c2nnnn2C2CCCC2)N2CCc3ccccc3C2)cc1OC (stereo not drawn) returned N370S GC mod 6.8% and KAT2A inh -2.4%.
`Nc1ccc(SCC(=O)Nc2cccc([N+](=O)[O-])c2)cc1` gave N370S GC mod 0.9% and KAT2A inh -14.7%.
For Cc1onc(-c2ccccc2)c1C(=O)Nc1nc(-c2cc(F)ccc2F)cs1 the results were N370S GC mod 2.9% and KAT2A inh 1.2%.
Screening O=C(CSc1nc2c(cnn2-c2ccc(F)cc2)c(=O)[nH]1)Nc1ccc(Br)cc1 returned KAT2A inh -9.0%.
For Cn1cc(CNC(=O)CC2C(=O)NCCN2CC(C)(C)C)cn1 (stereo not drawn) the results were N370S GC mod 18.8% and KAT2A inh inconclusive.
Screening CS(=O)(=O)Nc1ccc(C(=O)NCc2cccnc2)cc1 returned N370S GC mod 5.5% and KAT2A inh -5.0%.
Screening OCCNc1c2ccccc2nc2ccccc12 returned N370S GC mod 10.1% and KAT2A inh 3.0%.
For Cc1ccc(S(=O)(=O)N2CCN(C(C(=O)Nc3ccc(F)cc3)c3ccccc3)CC2)cc1 (stereo not drawn) the results were N370S GC mod -9.8% and KAT2A inh -5.8%.
Screening COc1ccccc1N1CCN(S(=O)(=O)c2cn(C)cn2)CC1 returned N370S GC mod -9.9% and KAT2A inh -4.4%.
Screening COc1ccc(-n2cc(C#N)c(=O)[nH]c2=O)cc1 returned N370S GC mod 8.9% and KAT2A inh 2.3%.
For CCOc1ccc(S(=O)(=O)N2CCN(C(=O)Cc3n[nH]c(=O)c4ccccc34)CC2)cc1 the results were N370S GC mod -0.5% and KAT2A inh -7.2%.
Screening CCOc1ccc(S(=O)(=O)NCc2cccnc2)cc1C(C)C returned N370S GC mod -21.3% and KAT2A inh -3.2%.
Screening CN(C)C1=NC[C@H](Cc2ccccc2)N1CCCC1CCCCC1 returned N370S GC mod -18.0% and KAT2A inh -3.9%.
CCC1Nc2ncnc(N3CCOCC3)c2N(Cc2ccc(Cl)cc2)C1=O (stereo not drawn) was read as KAT2A inh -3.4%.
`COc1cc(-n2c(=O)c3ccccc3n(CC(=O)c3ccc(Br)cc3)c2=O)cc(OC)c1OC` gave N370S GC mod 3.6% and KAT2A inh -0.3%.
For Cc1ccccc1-n1nnnc1SC(C)C(=O)Nc1ccc(N2CCN(C)CC2)cc1 (stereo not drawn) the results were N370S GC mod -17.9% and KAT2A inh -10.9%.
`CCOC(=O)c1ccc(NC(=O)CCNC(=O)c2ccc([N+](=O)[O-])cc2)cc1` gave N370S GC mod 5.4% and KAT2A inh -0.8%.
For Cc1cc(C)n(-c2ccc(N3CCOCC3)nn2)n1 the results were N370S GC mod 3.5% and KAT2A inh -1.8%.
Cc1cc(C)c2c(c1)NC(=O)C2(O)CC(=O)c1cccs1 (stereo not drawn) was read as N370S GC mod 2.7%.
For COc1ccc(CCNC(=O)c2ccc3nc(Cc4ccccc4)oc3c2)cc1OC the results were KAT2A inh -2.0%.
`CN(c1ccccc1)S(=O)(=O)c1cccc(C(=O)N2CCCCCC2)c1` gave N370S GC mod 2.4% and KAT2A inh -9.2%.
COc1ccc(C(CC(=O)N2CCCCC2)c2c(O)cc(OC)cc2OC)cc1 (stereo not drawn) was read as N370S GC mod -4.6%&17.4% and KAT2A inh -3.4%.
COC(=O)c1c(C(=O)OC)c2cc(C)ccn2c1Cl was read as N370S GC mod 9.6% and KAT2A inh -3.6%.
CCc1ccc(C(=O)COC(=O)c2cncc(Br)c2)cc1 was read as N370S GC mod 2.3% and KAT2A inh -12.6%.
`Cc1cc(C)c(NC(=O)C2CCCN(S(=O)(=O)c3c(C)noc3C)C2)c(C)c1` (stereo not drawn) gave KAT2A inh 2.2%.
Screening O=C(NCc1ccco1)C1CCN(c2nc3ccccc3n2Cc2ccc(F)cc2)CC1 returned N370S GC mod -7.1% and KAT2A inh -6.3%.
For COc1ccccc1N1CCN(C(=O)COc2cc(C)cc3oc(=O)cc(C)c23)CC1 the results were N370S GC mod 0.9% and KAT2A inh 1.0%.
Screening O=C(C1CCC(CNc2c(N3CCCCC3)c(=O)c2=O)CC1)N1CCN(C2CCCCC2)CC1 (stereo not drawn) returned N370S GC mod 1.4% and KAT2A inh -19.5%.

At a glance, part of the list above:
Screening OCCNc1c2ccccc2nc2ccccc12 returned N370S GC mod 10.1% and KAT2A inh 3.0%.
For Cc1ccc(S(=O)(=O)N2CCN(C(C(=O)Nc3ccc(F)cc3)c3ccccc3)CC2)cc1 (stereo not drawn) the results were N370S GC mod -9.8% and KAT2A inh -5.8%.
Screening COc1ccccc1N1CCN(S(=O)(=O)c2cn(C)cn2)CC1 returned N370S GC mod -9.9% and KAT2A inh -4.4%.
Screening COc1ccc(-n2cc(C#N)c(=O)[nH]c2=O)cc1 returned N370S GC mod 8.9% and KAT2A inh 2.3%.
For CCOc1ccc(S(=O)(=O)N2CCN(C(=O)Cc3n[nH]c(=O)c4ccccc34)CC2)cc1 the results were N370S GC mod -0.5% and KAT2A inh -7.2%.
Screening CCOc1ccc(S(=O)(=O)NCc2cccnc2)cc1C(C)C returned N370S GC mod -21.3% and KAT2A inh -3.2%.
Screening CN(C)C1=NC[C@H](Cc2ccccc2)N1CCCC1CCCCC1 returned N370S GC mod -18.0% and KAT2A inh -3.9%.

Assay outcomes (PubChem)

Some of the compounds tested; most or all hits stand in other tables.
